# Screening data from PubChem BioAssay.
# Calb biofilm kill – mixture kills Candida albicans biofilm cells | AID 1242 | C. albicans biofilm persisters + clotrimazole, fluorescence viability; primary screen in compound mixtures of four per well | inhibition, % at 7.6 µM | 120,000 compounds, 0.02% hits;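 active = inhibition above 30.3% in the primary screen of four-compound pools, then above 30% when the compound was retested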;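 note: compounds exposed to preformed 24 h biofilms for 48 h; the number belongs to the whole pool; some results filed as inactive read as strong as hits; inactives centre near 12; 0% = biofilm with clotrimazole alone and 100% = kill control; retested singly at about 60 µM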
#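 Probe or stimulus – Clotrimazole 50 µg/mL co-treatment · System – C. albicans biofilms · Schedule – 24 h biofilm formation, then 48 h compound exposure, 37 °C · Evaluation – percent inhibition of biofilm viability · Technique – 2-h Alamar Blue fluorescence, 535/590 nm excitation/emission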
# * = called active by the depositor.
SMILES,Calb biofilm kill
Cc1ccc(NC(=O)c2ccc(Br)o2)cc1S(=O)(=O)N(C)C,3
c1csc(-c2nnc(Cc3cccc4ccccc34)o2)c1,14
Cc1ccccc1Cn1ccc(=NCc2ccccc2)cc1,17
Clc1ccc(/C=N/Nc2nn[nH]n2)cc1,12
CC(C)Cc1cc(CN2CCC(CO)(Cc3ccccc3)CC2)[nH]n1,11
CC1NC(=O)NC1CCCCCC(=O)Nc1ccc(F)c(Cl)c1 (centres undefined),12
CCCC[C@@H]1CNC(=O)C(=O)N1CCCc1cc(OC)c(OC)c(OC)c1,-1
Cc1cc(=S)cc(C)n1CCO,4
CCCn1nc([N+](=O)[O-])c(C(C#N)c2nc3ccccc3o2)c(Cl)c1=O (centres undefined),17
O=C(O)c1ccc(/C=N/N2CCN(Cc3cccc4ccccc34)CC2)cc1,5
COc1ccc(-c2cc(CS(=O)(=O)c3ccccc3)on2)cc1,17
CC(=O)c1ccc(-n2cc(-c3ccc(C(C)(C)C)cc3)[n+]3c2SCCC3)cc1,5
CCc1nnc(NC(=O)CCn2cnc3ccccc3c2=O)s1,12
CCN(CC)CCCC(C)NC(=O)c1ccc(C(F)(F)F)cc1 (centres undefined),-2
Cc1cc(/C=N\NC(=O)COc2cccc3cccnc23)c(C)n1-c1ccccc1,13
CC(NC(=O)c1ccccc1)c1nnc(SCc2nc3ccccc3c(=O)[nH]2)n1C (centres undefined),19
CCn1c(NC(C)=O)nc2ccccc21,9
COc1ccc(-c2ccc(/C=C(\NC(=O)c3ccccc3)C(=O)N3CCOCC3)o2)cc1,31
COCCN1C(=O)c2cc(C(=O)Nc3ccc(OC)c(OC)c3)ccc2C1Nc1ccc(OC)c(OC)c1 (centres undefined),12
O=C(CSc1ccc2ccccc2n1)c1ccccc1,17
CSC1=C(C#N)C(c2ccccc2)C(C(C)=O)=C(C)N1 (centres undefined),8
Cn1c(N)c(C(=O)CN2CCc3ccccc3C2)c(=O)n(C)c1=O,12
CCN1CCCC1CNCc1ccc(OCc2ccc(Cl)nc2)c(OC)c1 (centres undefined),15
O=C(CSCc1c(Cl)cccc1Cl)NCc1ccccn1,3
COc1ccc(/C=C(\C#N)C(=O)OCC(=O)NC(C)c2ccccc2)cc1 (centres undefined),15

# The listing continues.
SMILES,Calb biofilm kill
Cc1ccc(C=Nc2ccccc2C(=O)Nc2ccccc2)cc1,5
Cc1cc(NC(=O)Cn2nnc(-c3ccccc3N)n2)no1,3
COc1ccc2c(c1)[nH]c1c(=O)n(CCN3CCOCC3)cnc12,15
N#C/C(=C(/O)c1ccco1)c1nc2ccccc2[nH]1,15
Cc1ccc(/C=C/c2nc3ccccc3c(=O)[nH]2)cc1,13
COC(=O)c1sccc1NC(=O)CNC(=O)c1ccccc1,5
O=C(/C=C/c1ccc(Cl)cc1)Nc1ccccc1N1CCOCC1,7
Cc1cc(C)n2nc(C(=O)NCc3cccc(C(F)(F)F)c3)nc2n1,18
O=C(Nc1ccc(F)cc1)N1CCCN(c2nccc(C(F)(F)F)n2)CC1,13
CC(C)(C)NC(=O)C(=O)NNC(=O)c1cccc(F)c1,13
N#CCCN(CCC#N)S(=O)(=O)c1ccc(C(=O)Nc2nnc(C3=COCCO3)o2)cc1,7
O=C(NCCCn1ccnc1)/C(=C\c1cccs1)NC(=O)c1cccs1,-1
O=C(COC(=O)c1cc(-c2ccccn2)nc2ccccc12)Nc1ncc(C(F)(F)F)cc1Cl,-5
COc1ccc(S(=O)(=O)Nc2cccc(F)c2)cc1C,-7
CCOP(=O)(OCC)C(NC(=O)/C=C/c1ccc(OC)cc1)c1ccccc1 (centres undefined),19
O=[N+]([O-])c1cccc(/C=C/c2ccncc2)c1,13
O=C(NCC1OCCc2ccccc21)c1ccc(NC(=O)c2ccc(Cl)cc2Cl)cc1 (centres undefined),11
O=C1C=C(Nc2ccc(Cl)cc2)CC(c2ccco2)C1 (centres undefined),17
COc1ccc(C=O)cc1CSc1nnc(COc2cccc3cccnc23)o1,18
Cc1cc(NC(=O)CN2CCCCC2)no1,2
CCOC(=O)Cc1csc(NC(=O)/C=C/c2ccc(Cl)cc2)n1,15
Cc1[nH]c2ccccc2c1C(=O)COc1ccccc1F,9
CCCCn1c(=O)c(CCC(=O)OCC(=O)NCc2ccc(OC)c(OC)c2)nc2ccccc21,15
O=C(NC1CCCC1)C1CCN(c2nccs2)CC1,9
Cc1ccc(Cn2c(O)c(N=O)c3ccccc32)cc1,12

# Following part:
SMILES,Calb biofilm kill
NC(=O)COC(=O)c1cc(Cl)cc(Cl)c1N,0
COc1cc2c(cc1N/C=C(\C#N)c1nc(-c3ccc(F)cc3)cs1)oc1ccccc12,21
COC(=O)c1cc(NS(=O)(=O)c2ccc(NCc3cccnc3)c(N)c2)cc(C(=O)OC)c1,-4
CCOc1ccc(Nc2n[nH]c(=S)s2)cc1,26
Nc1nc(Nc2ccccc2)nc(N2CCOCC2)c1[N+](=O)[O-],18
CCOc1ccc(NC(=S)NNc2ccnc3cc(Cl)ccc23)cc1,9
COc1cccc(-n2cc(CNCc3c(C(=O)N(C)C)nc4ccc(Cl)cn34)cn2)c1,3
C[C@@H]1C[C@@H]2OC(=O)[C@]3(C)[C@H]2[C@@H](OC3(C)O)[C@]2(C)C(=O)C=C[C@H]12 (some centres undefined),31
CCCCCCCCCCn1ccc(=N)cc1,18
O=C(Cn1cnc2c(cnn2-c2ccccc2)c1=O)Nc1cc(S(=O)(=O)N2CCOCC2)ccc1Cl,18
C/C(CC(=O)Nc1cccc2c1CCCC2)=N\NC(=O)c1cccc2ccccc12,6
Cc1ccc(NC2=NC(c3ccc(F)cc3)n3c(nc(C)cc3=O)N2)cc1 (centres undefined),33
Cc1ccc(S(=O)(=O)CCC(=O)Nc2cccc([N+](=O)[O-])c2)cc1,4
Cc1ccc(C)c(N2CCN(C(=O)c3csc4ccccc34)CC2)c1,13
CCN(CC)S(=O)(=O)c1c(OC)cc(C)c(Cl)c1C,7
O=C(N1CCCCC1)N1CCN(S(=O)(=O)c2ccc(Cl)cc2)CC1,8
CC(C)c1ccc(NC(=O)C[n+]2ccn(C3=C([O-])c4ccccc4C3=O)c2)cc1,10
O=S(=O)(/C=C/c1ccccc1)NC1CCCCCC1,-2
CCn1c(CNC(=O)c2ccccc2F)nnc1SCC(=O)NC1CCCCC1,26
NNC(=O)c1snnc1-c1ccccc1,15
Cc1ccc(SCCNC(=O)/C=C/c2ccc(Cl)cc2)cc1,6
Cc1[nH]c2ccccc2c1C(=O)C(=O)N1CC=C(c2ccccc2)CC1,21
COC(=O)c1sc(NC(=O)C2c3ccccc3Oc3ccccc32)c(C(=O)OC)c1C,8
COc1ccc(N2CC(O)=C(c3nc(-c4ccc(F)cc4)cs3)C2=N)cc1Cl,9
CCCCNC(=O)C(=O)NCc1ccncc1,14

# Continued; the last 4 above are carried over.
SMILES,Calb biofilm kill
Cc1[nH]c2ccccc2c1C(=O)C(=O)N1CC=C(c2ccccc2)CC1,21
COC(=O)c1sc(NC(=O)C2c3ccccc3Oc3ccccc32)c(C(=O)OC)c1C,8
COc1ccc(N2CC(O)=C(c3nc(-c4ccc(F)cc4)cs3)C2=N)cc1Cl,9
CCCCNC(=O)C(=O)NCc1ccncc1,14
O=C(CC1S/C(=N/N=C/c2cccs2)NC1=O)Nc1ccc(Cl)c(Cl)c1 (centres undefined),21
COc1cc(-c2nc3ccc4ccccc4c3c3c2CCC3)cc(OC)c1O,12
N#CC(C#N)=C1C=CC=CN1/C(=C\c1ccco1)C(=O)c1ccc(Br)cc1,19
CCOC(=O)C1CCN(C(=O)c2ccccc2NS(=O)(=O)c2ccc(F)cc2)CC1,4
CSc1nsc(N/N=C/c2ccc3c(c2)OCO3)c1C#N,14
CCOC(=O)Cc1csc(NC(=S)NC(=O)c2cc(OC)cc(OC)c2)n1,9
N=C(N)SCc1cn2ccccc2n1,7
O=C(N/C(=C\c1ccc([N+](=O)[O-])cc1)C(=O)N1CCCCC1)c1ccccc1Br,18
COc1ccc(Cl)cc1-c1nc(SCC(N)=O)n[nH]1,14
O=C(NC(Cc1ccccc1)c1nc2ccccc2[nH]1)c1cccc([N+](=O)[O-])c1 (centres undefined),23
COc1cccc(/C=N/NC(=O)C(=O)Nc2ccccc2OC(F)(F)C(F)F)c1O,14
O=C(c1c(Cl)cccc1Cl)N1CCN(c2cccc3[nH]ccc23)CC1,6
CCCCN(C)C1CCN(C(=S)Nc2cccc(OC)c2)CC1,-3
CN(CC(=O)Nc1ccc([N+](=O)[O-])cc1Br)Cc1c(F)cccc1Cl,13
Cc1ccsc1C(=O)OCC(=O)Nc1c(C)n(C)n(-c2ccccc2)c1=O,27
Cc1[nH]nc2c1C(c1ccc(O)cc1)C1=C(CC(C)(C)CC1=O)N2 (centres undefined),9
COc1cc(NC(=S)N2CCC(C(N)=O)CC2)c(OC)cc1Cl,16
CN1CCN(S(=O)(=O)c2cccc(C(=O)Nc3sc4c(c3-c3nc5ccccc5[nH]3)CCCC4)c2)CC1,18
COc1nnc(-c2ccccc2)s1,22
CSCCC(N=C(NS(=O)(=O)c1ccccc1)c1ccccc1)C(=O)O (centres undefined),26
CCCCCCCN1C2=NCCN2c2ccccc21,9
C/C(=N\NC(=O)Cc1ccc(F)cc1)c1ccc(F)cc1,10
Nc1nc(N2CCN(c3ccc(Cl)cc3)CC2)n[nH]1,10
O=S1(=O)CCC(NC(=S)N2CCOCC2)C1 (centres undefined),16
CC1CCCCN1C(=O)CCS(=O)(=O)c1cccc2nonc12 (centres undefined),20

# New compounds follow
SMILES,Calb biofilm kill
COc1cc(/C=C/C(=O)Oc2coc(CSc3ncccn3)cc2=O)cc(OC)c1OC,15
COc1ccc(-c2[nH]ncc2CN(C)CCCN2CCOCC2)cc1F,15
O=C(Nc1ccc(Cl)c(Cl)c1)Nc1cc(S(=O)(=O)N2CCOCC2)ccc1N1CCCC1,-3
COc1ccc(C2CCCN2C(=S)Nc2c(C)cccc2C)cc1OC (centres undefined),10
Cc1ccc(NCCCCO)cc1C,1
O=C1c2ccccc2C(=O)N1CCCCN(C(=O)c1cc2ccccc2oc1=O)c1ccc(F)cc1F,18
Cc1cc(=O)[nH]c(SCC(=O)Nc2ncc(S(=O)(=O)c3ccc([N+](=O)[O-])cc3)s2)n1,15
CCn1c2ccccc2c2cc(NC(=O)CNCC3CCCO3)ccc21 (centres undefined),9
C#CCOCCOCCOCCNc1nc(N2CCN(C(=O)[C@H]([C@@H](C)CC)n3cc(CCCCN)nn3)CC2)nc(N2CCN(C(=O)[C@H](C)n3cc(CCC(=O)O)nn3)CC2)n1,13
CCc1c(C(C)=O)oc2ccc3c(C)cc(=O)oc3c12,16
Oc1nc(Nc2ccc(F)cc2)sc1/C=C1\C=Nc2ccccc21,12
CC1CN(c2ncc(/C=N/NC(=O)c3ccccc3O)s2)CC(C)O1 (centres undefined),5
CCOC(=O)c1cc(C)n(-c2ccc(Cl)cc2)c1C,13
CCC(C)n1c(=N)c(C#N)cc2c(=O)n3cc(C)ccc3nc21 (centres undefined),9
CSc1nc2c(cc1C#N)C(=O)CC(C)(C)C2,5
CCO[C@@H]1OC(C(=O)N2CCN(Cc3ccccc3)CC2)=C[C@H](C)[C@H]1CCCO,12
C/C(=N\N=C(N)N)c1ccc(Cl)c(Cl)c1,21
C=C1CCN([C@H](C(=O)OCc2cccc(C)c2)C(C)C)S(=O)(=O)c2ccccc21,14
Cc1nn(Cc2c(Cl)cccc2Cl)c(C)c1N,11
COC(=O)c1ccc(CSc2n[nH]c(C)n2)o1,19
CC(=O)CSc1nnc(C(F)(F)F)n1C,33
COc1ccc(N=N/C(C(C)=O)=C(/C)O)cc1,16
CCc1nc2ccccc2c(NC(=O)CN2CC(C)CC(C)C2)c1C (centres undefined),5
NC(=O)CC(NC(=O)Cc1ccc(Cl)cc1)c1ccc(NC2CCCCC2)c([N+](=O)[O-])c1 (centres undefined),14
CN1CCN(C(=O)/C=C/c2ccc([N+](=O)[O-])cc2)CC1,30

# 4 of the compounds above, with each value named:
> COC(=O)c1ccc(CSc2n[nH]c(C)n2)o1
- Calb biofilm kill: 19
> CC1CN(c2ncc(/C=N/NC(=O)c3ccccc3O)s2)CC(C)O1 (centres undefined)
- Calb biofilm kill: 5
> Oc1nc(Nc2ccc(F)cc2)sc1/C=C1\C=Nc2ccccc21
- Calb biofilm kill: 12
> CCO[C@@H]1OC(C(=O)N2CCN(Cc3ccccc3)CC2)=C[C@H](C)[C@H]1CCCO
- Calb biofilm kill: 12

# Additional results follow:
SMILES,Calb biofilm kill
Cc1ccc(C(=O)NC2CCN(S(=O)(=O)c3ccc(C)cc3)CC2)cc1,2
CC(O)CCC(=O)NNC(=S)Nc1ccccc1 (centres undefined),3
CCn1c(/C(C#N)=N/O)nc2ccccc21,19
O=C(O)c1cccc(S(=O)(=O)Nc2ccc(S(=O)(=O)N3CCOCC3)cc2)c1,10
CCc1cccc(C)c1NC(=O)C1CC=CCC1C(=O)O (centres undefined),16
CC1(C)CC(=O)C(C=NCCN2CCN(C3CC(=O)N(c4cccc(Br)c4)C3=O)CC2)=C(O)C1 (centres undefined),17
CCN(CC(=O)NC1CCS(=O)(=O)C1)S(=O)(=O)c1ccc(C)c(C)c1 (centres undefined),19
CN(C)c1ccc(N=Cc2nc(-c3ccccc3)oc2OC(=O)c2ccccc2)cc1,11
c1nc(NCCN2CCOCC2)c2sc3nc(N4CCOCC4)c4c(c3c2n1)CCC4,-4

# 3 structures out of the list, arranged by SMILES length, high to low:
SMILES,Calb biofilm kill
O=C(O)c1cccc(S(=O)(=O)Nc2ccc(S(=O)(=O)N3CCOCC3)cc2)c1,10
CCc1cccc(C)c1NC(=O)C1CC=CCC1C(=O)O (centres undefined),16
CC(O)CCC(=O)NNC(=S)Nc1ccccc1 (centres undefined),3

# Only part of the results is shown. The share of hits here may be higher or lower than overall.
